Assay outcomes: PubChem BioAssay, National Center for Advancing Translational Sciences (NCATS)
StopGo reporter – FMDV 2A StopGo reporter, luciferase signal; Potency, µM (doses to about 57.9 µM), for the others: at the highest dose signal change, negative = less light; human cells with a luciferase reporter of 2A StopGo recoding; control for the full effect not named in the record; AID 1159524; 410,000 compounds, 1.2% hits; active = well fitted falling curve with a large enough effect; inconclusive = small, poorly fitted or top-dose-only effect; inactive = no such curve, though single readings can be large or run the other way; tested in HEK293T cells; further: on the % scale 0 is the no-effect control and ±100 the full control effect; nearly all actives have a fitted effect of over 45% in size; luciferase light after 4 h
SARS PLpro yeast – blocks SARS-CoV papain-like protease in a yeast assay; S. cerevisiae expressing SARS-CoV PLpro, growth rescue; control for the full effect not named in the record; Potency, µM (doses to about 32.9 µM), for the others: at the top dose activity, positive = growth rescue; 330,000 compounds, 0.19% hits; active means well fitted rising curve with a large enough effect; inconclusive means small, poorly fitted or top-dose-only effect; inactive means no such curve, though single readings can be large or run the other way; further: 0% is about no effect; nearly all actives have a fitted effect of over 55% in size; growth read by luminescence after 48 h
RE007 growth inh – less growth of the S. pombe RE007 Vpr strain; 360,000 compounds, 0.21% hits; Potency, µM (series often up to 92.2 µM), without a hit: at the highest dose activity change, negative = less growth; S. pombe RE007 Vpr strain, BacTiter-Glo ATP luminescence, 24 h; control for the full effect not named in the record; active = well fitted falling curve with a large enough effect; inconclusive = small, poorly fitted or top-dose-only effect; inactive = no such curve, though single readings can be large or run the other way;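 further: on the % scale 0 is the no-effect control and ±100 the full control effect; nearly all actives have a fitted effect of over 50% in size; the assay follows cell death caused by Vpr and the record does not say whether a fall means rescue or toxicity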
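Fission yeast strain RE007, carrying one chromosomally integrated HIV-1 vpr copy, was seeded at OD 0.01 in PMG+AL medium with 23 nL pinned compound. After 24 h at 30 °C and 99% humidity, viability was read by BacTiter-Glo luminescence.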
* = called active by the depositor; ? = inconclusive; [ ] = another dose, or the depositor's remark. Potency means the concentration at half of the fitted maximal effect. A portion of the library, so the mix of outcomes need not match the whole.

Molecule	StopGo reporter	SARS PLpro yeast	RE007 growth inh
O=c1oc2ccc(C#CC3(O)CCCCC3)cc2cc1-n1cc(-c2ccccn2)nn1	-24.5%	3.4%	2.1%
COC1=CC(=O)[C@@]2([C@@H]1O)[C@@H](Cl)C[C@]13C(OC)=C(OC)C(=O)C[C@]21CCN3C	-4.2%	-5.0%	2.3%
COc1ccccc1CNC(=O)COC(=O)c1cc(C)oc1C	0.6%	-0.2%	-5.4%
Cc1ccc2nc(N3C(=O)C(O)=C(C(=O)c4ccc(C)o4)C3c3ccco3)sc2c1 (stereo not drawn)	19.8%	-2.9%	-4.8%
O=C(CN1CCC(O)(c2ccccc2)CC1)Nc1ccc2c(c1)OCCO2	-21.3%	0.6%	1.5%
C/C(=N\OCC(=O)Nn1c(=O)[nH]c2ccccc2c1=O)c1cccs1	4.6%	0.7%	-5.6%
CC(OC(=O)c1ccccc1C(=O)N(C)C1CCCCC1)C(=O)NC1(C#N)CCCCC1 (stereo not drawn)	0.0%	1.2%	1.4%
Cc1cc(C)c(CN2CCN(C(=O)Cn3ccc(N)nc3=O)CC2)c(C)c1	-18.6%	-13.2%	-12.9%
COC(=O)C1CSC(C(=O)OC)N1C(=O)CN1CCN(c2ccc(OC)cc2)CC1 (stereo not drawn)	-3.9%	-1.7%	0.1%
COCCN(CC(=O)Nc1cccc(C)c1C)C(=O)Cn1c(=O)cnc2ccccc21	-13.0%	-0.2%	3.6%
c1ccc(-c2cncn2-c2ccccc2)cc1	28.1%	-24.2%	-11.2%
CC(C)CC(NC(N)=O)C(=O)NCCc1ccc(Cl)cc1Cl (stereo not drawn)	-15.6%	-0.5%	-7.5%
Cc1ccc(/C=C/S(=O)(=O)NCC(=O)OCC(=O)Nc2ccc(C(=O)N(C)C)cc2)cc1	-6.3%	3.2%	1.2%
CC(C)NS(=O)(=O)c1ccc(NC(=O)C(C)OC(=O)CCC2CCCC2)cc1 (stereo not drawn)	-15.8%	-0.9%	6.5%
O=C(CCc1nc(-c2ccccc2)no1)Nc1cccc(C(=O)NC2CC2)c1	-6.5%	-5.1%	-9.1%
COc1ccccc1CNC(=O)c1cc(-c2ccccc2C)nn1CC1CC(c2cccnc2)=NO1 (stereo not drawn)	-6.0%	-0.1%	18.6%
O=C(CCS(=O)(=O)c1ccccc1)N(CCCN1CCOCC1)c1nc2ccc(F)cc2s1	1.2%	6.8%	-3.7%
CC1Sc2ccc(C(=O)NCc3ccccn3)cc2NC1=O (stereo not drawn)	12.3%	1.4%	-13.4%
CC1CCC(CN2C(Nc3ccccc3)=NC[C@@H]2Cc2ccccc2)CC1 (stereo partly drawn)	-18.6%	3.6%	-5.3%
CCN(CC)S(=O)(=O)c1ccc(OC)c(NC(=O)c2ccc(N3CCCC3=O)cc2)c1	6.2%	-3.0%	-14.1%

(continued)
Molecule	StopGo reporter	SARS PLpro yeast	RE007 growth inh
CCS(=O)(=O)N1Cc2ccccc2CC1C(=O)Nc1cccc(C)c1 (stereo not drawn)	69.3%[activator]	-0.9%	-13.6%
c1cncc(CSc2nnc3ccc(-c4ccncc4)nn23)c1	-1.5%	0.0%	12.4%
CC1CC(C)CN(S(=O)(=O)c2ccc(C(=O)NN3CCOCC3)cc2)C1 (stereo not drawn)	-1.8%	-2.0%	-9.7%
COc1cc(F)cc(C2=CC(=O)C[C@H](c3ccc(F)cc3)C2)c1	-14.9%	2.3%	9.5%
C[C@@]12C(=O)N(c3cccc(F)c3)C(=O)N1[C@@H]1c3ccccc3OC[C@@H]1[C@H]2c1ccccc1	?	-3.3%	-12.0%
CCNC(=O)NC(=O)CSc1ccc(S(=O)(=O)N2CCOCC2)cn1	-16.4%	-3.1%	-4.4%
COCCn1c(O)c(/C=N/NC(=O)CSC(=S)N2CCCC2)c(=O)[nH]c1=S	-15.0%	3.7%	10.1%
CCc1ccccc1OCC(=O)OCC(=O)Nc1cc(C)on1	-20.9%	0.0%	-7.3%
O=C(COC(=O)Cc1ccccc1F)NCCc1ccccc1	-12.7%	-1.2%	-7.5%
CC1(C)CCC[C@]2(C)[C@H]3Cc4cc(O)ccc4O[C@]3(C)CC[C@@H]12	0.0%	8.4%	?
C[C@H](CO)N1C[C@H](C)[C@@H](CN(C)S(C)(=O)=O)Oc2ccc(NC(=O)C3CC3)cc2C1=O	-2.7%	-23.6%	-6.8%
COCCn1c(SCC(=O)c2c(N)n(C3CC3)c(=O)[nH]c2=O)nc2ccccc21	-10.3%	3.6%	-3.7%
Cc1ccc2nc(N(CCCN(C)C)C(=O)CN3C(=O)c4ccccc4C3=O)sc2c1	6.9%	-0.6%	7.4%
COc1cc(NC(=O)C/C(C)=N/NC(=O)C(=O)NC2CCCCC2)c(OC)cc1Cl	-5.1%	-5.0%	-7.1%
O=C(COC(=O)c1ccccc1)Nc1cc(S(=O)(=O)N2CCCCCC2)ccc1Cl	8.0%	-1.5%	-1.3%
CCOP(=O)(OCC)c1ccc(O)cc1	-11.3%	-1.9%	4.4%
CC(C(=O)Nc1ccccc1)N1CCN(C(=O)c2ccco2)CC1 (stereo not drawn)	-10.9%	-16.1%	1.9%
COc1ccc(S(=O)(=O)N2CCCCC2)cc1NC(=O)CCNC(=O)c1ccccc1Cl	1.6%	2.5%	-0.5%
CC(Nc1ccc2ccccc2c1)C(=O)N/N=C/c1ccncc1 (stereo not drawn)	-15.4%	-0.5%	3.2%
Cc1cc(OCCN2CCN(S(=O)(=O)c3ccccc3F)CC2)ccc1C(C)C	-22.6%	0.9%	-5.6%

4 entries from above, arranged by heavy-atom count, highest first.
Molecule	StopGo reporter	SARS PLpro yeast	RE007 growth inh
Cc1ccc2nc(N(CCCN(C)C)C(=O)CN3C(=O)c4ccccc4C3=O)sc2c1	6.9%	-0.6%	7.4%
COCCn1c(SCC(=O)c2c(N)n(C3CC3)c(=O)[nH]c2=O)nc2ccccc21	-10.3%	3.6%	-3.7%
CC1(C)CCC[C@]2(C)[C@H]3Cc4cc(O)ccc4O[C@]3(C)CC[C@@H]12	0.0%	8.4%	?
CCOP(=O)(OCC)c1ccc(O)cc1	-11.3%	-1.9%	4.4%

Further compounds:
Molecule	StopGo reporter	SARS PLpro yeast	RE007 growth inh
COc1ccc(NS(=O)(=O)c2cc(NC(=O)CC(C)(C)C)ccc2N2CCCC2)cc1	49.2%[activator]	1.4%	-5.8%
COC(=O)C1=C(c2c(C)noc2C)C[C@@H]2CC[C@H]1N2C(=O)NCCO	1.9%	1.3%	7.4%
C[C@H](CO)N1C[C@H](C)[C@@H](CN(C)S(=O)(=O)c2ccc(F)cc2)Oc2ccc(NS(=O)(=O)c3ccc(F)cc3)cc2C1=O	-15.3%	0.6%	-1.3%
COC(=O)[C@@]1(Cc2ccccc2)[C@H]2C(=O)N(C)C(=O)[C@H]2[C@H]2CN=C(SCc3ccc(C#N)cc3)N21	-19.4%	1.9%	0.6%
NS(=O)(=O)c1ccc(CNC(=O)/C=C/c2ccccc2[N+](=O)[O-])cc1	-10.5%	1.1%	2.9%
COc1ccc(S(=O)(=O)N2CCCCCC2)cc1NC(=O)CCCOc1ccccc1	5.9%	-3.9%	5.8%
CC(=O)N1c2ccccc2[C@H](C)[C@H]1C	9.8%	-2.2%	13.2%
CCc1cccc(C)c1NC(=O)CN(C)C1=NS(=O)(=O)c2ccccc21	-16.4%	-0.5%	-13.2%
Cc1ccc(N(CC(=O)Nc2cc(C)cc(C)c2)S(=O)(=O)c2c(C)noc2C)cc1	?	19.0%	11.8%
CN(CC(=O)Nc1ccccc1Cl)C(=O)COC(=O)c1ccc(-c2ccc(O)cc2)cc1	4.3%	3.7%	5.7%
COc1cc(C(=O)NC2CCCC(C)C2C)ccc1OCC(=O)N1CCOCC1 (stereo not drawn)	11.8%	-5.6%	5.1%
O=C(COC(=O)C12CC3CC(CC(C3)C1)C2)NCc1ccccc1	-12.9%	0.3%	7.1%
COC(=O)C1=C(c2ccc(F)cc2OCc2ccccc2)C[C@@H]2CC[C@H]1N2C(=O)NC1CC1	6.2%	-2.1%	13.7%
C[n+]1ccc(CC2C(=[N+]([O-])[O-])C=Nc3ncnn32)cc1 (stereo not drawn)	-5.8%	4.5%	0.7%
O=C(CN1C(=O)NC2(CCCCC2)C1=O)Nc1ccc(Cl)cc1	19.0%	0.3%	4.8%
Cc1noc(C)c1S(=O)(=O)N(C)C[C@H]1Oc2ccc(NC(=O)NC3CCCCC3)cc2C(=O)N([C@H](C)CO)C[C@@H]1C	-7.0%	1.5%	8.0%
COc1cc(OC)cc(C(=O)N[C@H](C(=O)OCC(=O)Nc2cccnc2Cl)C(C)C)c1	-17.4%	-0.2%	-1.9%
Cc1ccc(S(=O)(=O)Nc2ccc3c(c2)C(=O)N([C@H](C)CO)C[C@@H](C)[C@@H](CN(C)C(=O)Nc2cccc4ccccc24)O3)cc1	?	-4.1%	2.2%
Cc1n[nH]c(C)c1S(=O)(=O)N1CCCC(C(=O)O)C1 (stereo not drawn)	-15.4%	-5.9%	8.7%
CC(Sc1nnc(C(F)(F)F)n1C)C(=O)Nc1ccc(N2CCOCC2)cc1 (stereo not drawn)	-14.0%	-5.1%	5.3%

The last 5 entries of the section before open the next one:
Molecule	StopGo reporter	SARS PLpro yeast	RE007 growth inh
Cc1noc(C)c1S(=O)(=O)N(C)C[C@H]1Oc2ccc(NC(=O)NC3CCCCC3)cc2C(=O)N([C@H](C)CO)C[C@@H]1C	-7.0%	1.5%	8.0%
COc1cc(OC)cc(C(=O)N[C@H](C(=O)OCC(=O)Nc2cccnc2Cl)C(C)C)c1	-17.4%	-0.2%	-1.9%
Cc1ccc(S(=O)(=O)Nc2ccc3c(c2)C(=O)N([C@H](C)CO)C[C@@H](C)[C@@H](CN(C)C(=O)Nc2cccc4ccccc24)O3)cc1	?	-4.1%	2.2%
Cc1n[nH]c(C)c1S(=O)(=O)N1CCCC(C(=O)O)C1 (stereo not drawn)	-15.4%	-5.9%	8.7%
CC(Sc1nnc(C(F)(F)F)n1C)C(=O)Nc1ccc(N2CCOCC2)cc1 (stereo not drawn)	-14.0%	-5.1%	5.3%
COc1cc(/C=N/NC(=O)c2ccccc2Cl)ccc1Oc1ccc([N+](=O)[O-])cn1	-21.6%	-1.2%	-12.3%
CCN(CC(=O)Nc1ccc2c(c1)OCCO2)C(=O)CCOc1ccccc1	0.7%	4.3%	-4.7%
O=C(Cc1cccc(NC(=O)C2CCN(C(=O)C3CCC3)CC2)c1)Nc1cccc(C(=O)N2CCCC2)c1	-11.0%	-2.2%	-0.4%
O=C(CNC(=O)c1ccccc1)c1ccccc1	8.7%	2.1%	1.1%
COc1cc(NC(=O)c2ccc(S(=O)(=O)N(C)c3ccccc3)cc2)cc(OC)c1	-10.8%	-7.5%	-10.7%
O=C1CS(=O)(=O)N(Cc2ccccc2F)c2ccc(Br)cc21	0.0%	-76.7%	3.4%
CCOc1ccc(NC(=O)CN2CCCC2c2cccs2)cc1S(=O)(=O)N1CCCC1 (stereo not drawn)	7.3%	-1.6%	8.3%
CC(OC(=O)C1CCCCC1)C(=O)Nc1ccc(S(N)(=O)=O)cc1 (stereo not drawn)	-12.7%	10.4%[6.58 µM]	3.1%
Cc1noc(C)c1NC(=O)N(C)C[C@H]1Oc2c(NS(=O)(=O)c3cn(C)cn3)cccc2C(=O)N([C@H](C)CO)C[C@@H]1C	13.5%	2.2%	13.0%
Cc1ccc(S(=O)(=O)NCCC(=O)NC2CCCCC2C)cc1 (stereo not drawn)	-19.2%	-3.9%[6.58 µM]	-9.1%
CC(C)(C)N(Cc1ccccc1)C(=O)COC(=O)C1CCN(c2ccc(C(F)(F)F)cn2)CC1	?	-0.5%	-24.1%
O=C(COC(=O)CCc1nc2ccccc2c(=O)[nH]1)Nc1ccc(OC(F)(F)F)cc1	-13.2%	-3.9%	5.0%
